KCNQ2 enhance – potentiators of rat KCNQ2 potassium channel; B-score at 10 µM; AID 2239, 2010; Potassium voltage-gated channel subfamily KQT member 2 (Rattus norvegicus), O88943; actives 0.54% (n = 310,000); CHO-K1 KCNQ2, FluxOR thallium flux fluorescence; active compounds read high;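 active means fluorescence ratio B-score at least 3 SD of library B-scores, with initial fluorescence B-score within 3 SD, cut at about 5.3 in these data; same plate scores as AID 2156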;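 further: B-score of peak minus minimum over baseline fluorescence ratio after K+ and Tl+ stimulus; positive B-score means potentiation of KCNQ2 with more thallium influx and brighter signal; only the inactives scoring about 0 or higher are listed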
Target sequence (O88943 whole entry, looked up): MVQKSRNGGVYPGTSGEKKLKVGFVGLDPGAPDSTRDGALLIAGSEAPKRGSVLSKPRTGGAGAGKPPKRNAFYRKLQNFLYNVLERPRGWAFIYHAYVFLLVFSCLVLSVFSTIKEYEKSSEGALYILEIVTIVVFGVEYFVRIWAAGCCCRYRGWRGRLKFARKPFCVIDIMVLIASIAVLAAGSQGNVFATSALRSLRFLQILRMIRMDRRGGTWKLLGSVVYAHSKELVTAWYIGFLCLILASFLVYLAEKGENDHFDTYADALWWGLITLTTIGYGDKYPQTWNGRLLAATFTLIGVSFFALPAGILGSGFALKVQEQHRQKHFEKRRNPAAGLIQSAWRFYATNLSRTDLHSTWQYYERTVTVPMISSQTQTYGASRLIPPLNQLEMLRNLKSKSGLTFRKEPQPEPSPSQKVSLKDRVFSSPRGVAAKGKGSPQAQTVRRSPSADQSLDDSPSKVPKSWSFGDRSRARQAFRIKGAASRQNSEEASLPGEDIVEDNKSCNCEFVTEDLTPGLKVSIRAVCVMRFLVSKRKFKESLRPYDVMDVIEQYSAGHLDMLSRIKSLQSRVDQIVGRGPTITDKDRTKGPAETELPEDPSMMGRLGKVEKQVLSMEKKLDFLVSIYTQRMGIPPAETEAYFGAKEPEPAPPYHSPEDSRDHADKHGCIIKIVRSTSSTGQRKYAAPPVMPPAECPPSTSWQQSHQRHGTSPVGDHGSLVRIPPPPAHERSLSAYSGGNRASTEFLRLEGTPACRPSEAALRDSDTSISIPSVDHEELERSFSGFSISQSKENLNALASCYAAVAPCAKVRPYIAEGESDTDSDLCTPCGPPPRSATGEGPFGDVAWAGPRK
KCNQ2 enhance baseline – further read-out of KCNQ2 enhance, marked with its call; B-score; compound at 10 µM; measured here: initial fluorescence intensity artifact check;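 brightness before thallium and not channel activity; 0 = typical well and far values either way flag optical interference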
The depositor's hits bear a star. A portion of the library; count on the stated rates, not on these rows.

SMILES	KCNQ2 enhance	KCNQ2 enhance baseline
CCOC(=O)c1c(NC(=O)Cn2nc(C(=O)O)c3ccccc3c2=O)sc2c1CCC(C)C2 (stereo not given)	0.06	-1.4
CCS(=O)(=O)c1ccc2oc(SCC(=O)N3CCCCC3)nc2c1	0.54	1.1
Cc1ccc(C)c(OCC(=O)N/N=C/c2ccsc2)c1	0.19	-0.52
Cc1ccc(NCC(=O)N/N=C/c2cccc(Oc3ccccc3)c2)cc1	0.01	1.1
Nc1nncn1C(=O)CCCOc1ccc(Cl)cc1Cl	1.7	1.4
Cc1ccccc1CNc1nnnn1C	0.88	-0.01
CN(C)CCOc1ccccc1-c1ccccc1	0.06	-2
C[C@@H]1CC[C@]2(O[C@@H](CCO)C[C@H](O)[C@H]2O)O1	0.57	-2.1
c1ccc(-c2nnc(-c3ccccc3)nn2)cc1	0.02	1.2
O=C(CSc1nnc(Cn2nnc3ccccc32)o1)N(Cc1ccc(F)cc1)c1ccccc1	0.04	-0.33
O=C(Cn1c(=O)[nH]c2ccccc2c1=O)N1CCN(c2cccc(Cl)c2)CC1	1	0.35
O=C(CCN1C(=O)C2C3C=CC(C3)C2C1=O)Nc1ccccc1F (stereo not given)	1.5	-1.6
Cc1cc(Nc2nc(Cl)c(Cl)cc2Cl)n(-c2ccccc2)n1	0.07	-3.1
COC(=O)C1CCN(C(=O)COC(=O)c2cccc(NS(=O)(=O)c3ccccc3)c2)CC1	0.25	0.63
COc1cccc(-n2nnc3c(=O)n(Cc4ccccc4F)cnc32)c1	1.1	0.75
CN(C)S(=O)(=O)c1ccc(C(=O)OCCn2cnc3c2c(=O)n(C)c(=O)n3C)cc1	0.27	1
Cc1ccc2cc(CN(CCN(C)C)C(=S)Nc3ccccc3)c(=O)[nH]c2c1C	0.43	-1.8
N#C/C(=C/c1cn[nH]c1-c1cccc(Br)c1)C(=O)O	1.2	-1.5
O=C(CCNC(=O)Cn1ccc2ccccc2c1=O)NCCc1ccccc1Cl	0.1	1.4
O=C(Nc1nnc(C2CC2)s1)C1CCCO1 (stereo not given)	2.2	-1.1
COc1ccc(-c2nc3cc([N+](=O)[O-])ccc3o2)cc1	0.69	-2.4
CCN(CC)c1c([N+](=O)[O-])ncn1C	0.77	0.52
COc1ccccc1C1NC(=O)CS1 (stereo not given)	0.56	1.4
CC(C)c1ccc(NS(=O)(=O)c2ccc3c(c2)NC(=O)CO3)cc1	1.2	0.66
COc1ccc(/C=C2\SC(=S)N(CC(=O)N(C)C3CCS(=O)(=O)C3)C2=O)cc1 (stereo not given)	0.01	-1.1
SMILES	KCNQ2 enhance	KCNQ2 enhance baseline
CC12CCC(C(=O)NCCCN3CCOCC3)(OC1=O)C2(C)C (stereo not given)	1.7	-0.37
COc1ccc(N2CC(C(=O)N/N=C/c3ccc([N+](=O)[O-])cc3)CC2=O)cc1 (stereo not given)	0.61	0.44
COc1ccc(C(=O)N2CCC(C(=O)NC3CC3)CC2)cc1	1.2	-1.5
O=C(OC1Cn2c(=O)ccc(=O)n2C1)c1ccc([N+](=O)[O-])cc1	2	0.19
COCCNc1nc(-n2nc(C)cc2C)nc2sc3c(c12)CCCC3	1.2	0.02
COc1ccc(CCNC(=O)CSc2ccc(-c3ccccc3)nn2)cc1OC	1.1	0.52
CCN1C(=O)N[C@@H](c2cccc(C(F)(F)F)c2)[C@H](C(=O)OC)[C@H]1C	0.11	-0.67
COc1cc(CCC(=O)OCC(=O)N2CCc3ccccc32)cc(OC)c1OC	0.16	2.8
O=C(NCCc1nc2ccccc2[nH]1)c1ccco1	0.48	-1
O=C(NCc1ccncc1)c1cccc(S(=O)(=O)NCc2ccccc2)c1	0.11	0.27
COc1ccc(OC)c(S(=O)(=O)N2CCC(C(=O)NCCc3ccc(OC)c(OC)c3)CC2)c1	0.19	-0.05
CCC(=O)NCC(c1cccs1)N1CCOCC1 (stereo not given)	0.5	-0.11
O=C1CCCN2N=C(SCC(=O)Nc3cccc(Cl)c3)SC2=N1	0.12	0.36
COCCCNC(=O)C1CC(=O)N(CCc2ccc(OC)c(OC)c2)C1 (stereo not given)	1.4	0.57
O=C(Cn1nnc(-c2ccccc2-n2cnnn2)n1)N1CCCCC1	0.63	0.92
O=C(CN1CCc2ccccc2C1)N1CCN(S(=O)(=O)c2ccccc2)CC1	0.67	-0.28
Cc1ccc(OCc2cc(C(=O)NCc3cn4ccccc4n3)no2)cc1C	0.77	0.36
COc1ccc(N2C(=O)C(Cc3ccccc3)NC2=S)cc1 (stereo not given)	0.02	-1.8
C[C@H](NC(=O)c1nc[nH]c1C(=O)N[C@@H](C)C(=O)OCc1ccccc1)C(=O)OCc1ccccc1	0.01	0.82
CCC(=NCCc1ccc(OC)c(OC)c1)c1ccccc1O	1.8	0.1
NC(=O)[C@H]1CC2(CC(c3cccc(NC(=O)[C@H]4CCC(=O)N4)c3)=NO2)CN1C(=O)c1ccccc1 (stereo not given in full)	0.09	2.8
CS(=O)c1ccccc1O (stereo not given)	1.4	-0.41
CCc1nnc(NC(=O)C2CCCN(S(=O)(=O)c3ccc(OC)cc3)C2)s1 (stereo not given)	0.24	1
COc1ccc(C[C@H]2CN3C(=NC[C@H]3C)N2CCNC(=O)CCC2CCCCC2)cc1	0.63	-1.6
Cc1ccccc1-n1c(C)n[nH]c1=S	0.41	1.1
SMILES	KCNQ2 enhance	KCNQ2 enhance baseline
COC(=O)c1ccc(NCCc2csc(-c3ccc(C)cc3)n2)c([N+](=O)[O-])c1	2.1	-0.24
O=C(c1ccc(F)cc1)C1CCN(Cc2cn[nH]c2-c2ccc(F)cc2)CC1	1.9	0.65
Cc1ccc(-n2c(SCC(N)=O)nnc2-c2cccnc2)c(C)c1	0.39	-0.86
COc1cccc(-n2c(Cc3cc(=O)[nH]c(=O)[nH]3)nnc2SCC(=O)N2CCCCC2)c1	0.9	-1.1
CN(C)/C=C(\C#N)C(=O)Nc1ccc(F)cc1	0.72	0.57
CN(C)C=NC(=O)c1cc(C(=O)c2ccccc2Cl)c[nH]1	0.7	0.52
NC(=O)Cn1cc(C(=O)COc2ccccc2)c2ccccc21	1.1	-1.1
CCOC(=O)C1=C(N)Oc2c(oc(CO)cc2=O)C1c1ccccc1 (stereo not given)	1.2	-0.08
CCOc1ccc(C(=O)C2CCN(C(=O)c3ccccc3C(=O)O)CC2)cc1	0.06	0.14
Cc1cc(N2C(=O)C(O)=C(C(=O)c3ccc(C)o3)C2c2cccc(Oc3ccccc3)c2)no1 (stereo not given)	0.37	-1.4
O=C(CCCc1ccccc1)NC1CC1	0.73	-0.01
COC(=O)C1CCN(CC(=O)NC(=O)NC2CCCCC2)CC1	1	0.54
CCOc1ccc(-c2nnc(-c3ccncc3)o2)cc1	1.4	-1.3
CC(C)n1cc(CN2CCN(C)C(CCO)C2)c2ccccc21 (stereo not given)	0.33	1.1
CCCCOC(=O)CCCN1C(=O)/C(=C2\SC(=S)N(CCCC(=O)OCCCC)C2=O)SC1=S	0.45	1.9
O=C(O)C1C2C=CC(C2)C1C(=O)NCCc1cccc(Cl)c1 (stereo not given)	0.65	-3.4
CC(C)(C)OC(=O)N1CCC(c2c(C(=O)O)cnn2-c2ccc(Cl)cc2)CC1	0.21	0.01
CC(=O)c1c(C)[nH]c(C(=O)OCC(=O)N2CC(C)OC(C)C2)c1C (stereo not given)	0.73	-0.31
COc1ccc2[nH]c(=O)c(CN(Cc3nnnn3Cc3ccc(F)cc3)CC3CCCO3)cc2c1 (stereo not given)	1	0.04
COc1ccc(-c2c(C)[nH]n3c(=O)c(Cc4ccccc4)c(C)nc23)cc1	0.23	-1.4
O=C(CCc1nnc2ccc(N3CCOCC3)nn12)Nc1ccc(F)cc1F	0.03	0.78
COc1ccc(OC)c(S(=O)(=O)NCC(c2ccco2)N2CCc3ccccc3C2)c1 (stereo not given)	1.1	-1.3
COc1ccc(CCN2C(=O)c3[nH]nc(-c4ccccc4O)c3C2c2ccccc2)cc1OC (stereo not given)	2	0.86
COc1ccc(NCC(=O)N/N=C2\CCCC(C)C2)cc1 (stereo not given)	0.95	-0.11
CCC(=O)Nc1cccc(NC(=O)CN2CCN(c3ccccc3OC)CC2)c1	1.4	0
SMILES	KCNQ2 enhance	KCNQ2 enhance baseline
O=C(OCC(=O)N1CCOCC1)c1cccc(S(=O)(=O)N2CCCc3ccccc32)c1	1.1	0.88
COc1ccc(NC(=O)COc2coc(CN3c4ccccc4CC3C)cc2=O)cc1 (stereo not given)	0.17	0.13
COC(=O)c1ccc2c(=O)n(Cc3ccc(C(=O)NCCCN4CCC(C)CC4)cc3)c(=S)[nH]c2c1	1.2	-0.07
COc1ccc2c(c1)CCc1c(C(=O)Nc3c(C)nn(Cc4ccccc4)c3C)noc1-2	0.41	-0.75
COc1ccc(CN2CCNC(=O)C2CC(=O)NCCCn2nnc3ccccc32)cc1C (stereo not given)	2.1	0.6
CC(C)CC(=O)NC(Nc1ccc([N+](=O)[O-])cc1)C(Cl)(Cl)Cl (stereo not given)	0.4	-0.3
O=S(=O)(Nc1ccc(-c2cn3ccsc3n2)cc1)c1ccc2c(c1)OCCO2	0.39	-1.8
COCC(C)NCC(=O)NC(C)CCc1ccccc1 (stereo not given)	0.09	0.47
O=C(NCc1cccc(Cl)c1)c1cccnc1	1	0.28
Cc1cc(C)c(C(=O)OCC(=O)Nc2cccc(S(=O)(=O)N3CCCCC3)c2)c(C)c1	0.91	0.02
O=C(CCCN1CCOC(c2ccccc2)C1)c1ccc(F)cc1 (stereo not given)	0.18	-1.2
NC(=O)NC(CC(=O)OCC(=O)NC(=O)NCc1ccco1)c1ccc(Cl)cc1 (stereo not given)	1.1	-2.2
CC12CCC(C(=O)N(c3ccccc3Cl)C1=O)C2(C)C (stereo not given)	0.07	-0.03
Cc1ccc(SC(c2ccc(C)cc2)C(Cn2cncn2)C(=O)c2ccccc2)cc1 (stereo not given)	1.3	-0.39
COC(=O)CSc1cc(C(F)(F)F)nc(-c2ccccn2)n1	0.71	1.3
Cc1cc(OCCOCCN(C)CCO)cc(C)c1Cl	1.3	0.5
COc1ccc(NC(=O)c2ccco2)cc1NC(=O)c1cc2ccccc2o1	0.26	-1.6
CCOc1ccccc1C1NC(=O)NC(C)=C1C(=O)OC1CCCC1C (stereo not given)	0.17	1.4
O=c1c2ccccc2n2c(-c3cccc(F)c3)nnc2n1Cc1ccccc1	1.6	-1.1
O=C(NCC1CCCCC1)c1ccc(Cl)nc1	2	0.04

Bioassay records (PubChem)
